M5 antag: human M5 muscarinic receptor antagonists, primary screen, CHO cells, Fluo-8 calcium fluorescence. Muscarinic acetylcholine receptor M5 (Homo sapiens), P08912. CHO-hM5 cells, ACh EC80. inhibition, % at 3 µM. hit rate 0.59% among 360,000;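 active = inhibition above a per-plate cutoff, the mean of that plate's test compounds plus 3 SD, cut at about 27% in these data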;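 also: 0% = acetylcholine EC80 with DMSO and 100% = DMSO without agonist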
M5 PAM: human M5 muscarinic receptor positive allosteric modulators, primary screen, CHO-K1 cells, Fluo-8 calcium fluorescence. hit rate 0.3% among 360,000. AID 624038, 2012. activation, % at 3 µM. Muscarinic acetylcholine receptor M5 (Homo sapiens), P08912. CHO-K1 hM5, ACh EC20 PAM; 0% = ACh EC20, 100% = ACh EC100;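 active = activation above the run cutoff, the mean activation of all test compounds plus 3 SD, cut at about 18% in these data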
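Assay system – human M5 receptor in CHO-K1 cells · Read-out – % activation, ACh-normalized · Technique – Fluo-8 calcium fluorescence · Dosing – single-point, 3 µM nominal · Incubation – Fluo-8 loading 80 min at 37 °C plus 30 min room temperature · Repeats – singlicate, one well per test compound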
M5 ag: human M5 muscarinic receptor agonists, primary screen, CHO-K1 cells, Fluo-8 calcium fluorescence | hit rate 0.19% among 360,000 | CHO-K1 hM5 cells; 0% DMSO wells, 100% maximal acetylcholine response | Muscarinic acetylcholine receptor M5 (Homo sapiens), P08912 | activation, % at 3 µM;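 active = activation above the run's mean over test compounds plus 3 SD, cut at about 23% in these data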;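 also: signal is peak over basal fluorescence ratio across the kinetic read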
CHRM4 antagonist: human M4 muscarinic receptor antagonists, primary screen, CHO cells, Fluo-8 calcium fluorescence; CHO-hM4 cells, ACh EC80; inhibition, % at 3 µM; hit rate 0.73% among 360,000;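 active = inhibition above its plate's cutoff, the mean inhibition of sample wells plus 3 SD, cut at about 27% in these data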;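 also: 0% = acetylcholine EC80 with DMSO and 100% = DMSO without agonist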
Target sequence (P08173 whole entry, looked up): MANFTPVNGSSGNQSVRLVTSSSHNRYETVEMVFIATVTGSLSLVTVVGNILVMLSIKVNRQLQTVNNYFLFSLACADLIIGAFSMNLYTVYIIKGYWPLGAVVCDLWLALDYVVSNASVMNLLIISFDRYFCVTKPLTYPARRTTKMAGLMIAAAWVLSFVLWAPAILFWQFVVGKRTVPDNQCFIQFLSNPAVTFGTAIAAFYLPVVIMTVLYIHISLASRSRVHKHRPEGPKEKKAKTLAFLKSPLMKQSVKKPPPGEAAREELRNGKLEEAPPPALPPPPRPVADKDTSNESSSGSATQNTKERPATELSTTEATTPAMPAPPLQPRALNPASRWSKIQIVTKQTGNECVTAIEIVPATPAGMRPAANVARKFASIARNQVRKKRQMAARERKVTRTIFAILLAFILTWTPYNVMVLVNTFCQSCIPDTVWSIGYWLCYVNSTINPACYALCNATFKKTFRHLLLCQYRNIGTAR
Starred values were filed as active, the others as inactive. The list is partial; rates above refer to the full screens.

A first look:
Abbreviations – A = M5 antag; B = M5 PAM; C = M5 ag; D = CHRM4 antagonist
1. CN/C(=C/[N+](=O)[O-])NCCSCc1csc(CN(C)C)n1
  A: 1 | B: -3 | C: 1 | D: 4

2. CC(C)OC(=O)C(C)(C)Oc1ccc(C(=O)c2ccc(Cl)cc2)cc1
  A: -1 | B: 3 | C: -1 | D: -7

3. CCS(=O)(=O)CCn1c([N+](=O)[O-])cnc1C
  A: 2 | B: -6 | C: 0 | D: -16

4. O=C(CCCN1CC=C(n2c(=O)[nH]c3ccccc32)CC1)c1ccc(F)cc1
  A: 2 | B: -12 | C: 0 | D: 12

5. CCC(=O)O[C@]1(C(=O)CCl)[C@@H](C)C[C@H]2[C@@H]3CCC4=CC(=O)C=C[C@]4(C)[C@@]3(F)[C@@H](O)C[C@@]21C
  A: 2 | B: 0 | C: 1 | D: 6

6. OCCN(CCO)c1nc(N2CCCCC2)c2nc(N(CCO)CCO)nc(N3CCCCC3)c2n1
  A: 3 | B: -2 | C: 5 | D: 3

7. CC(C)(Sc1cc(C(C)(C)C)c(O)c(C(C)(C)C)c1)Sc1cc(C(C)(C)C)c(O)c(C(C)(C)C)c1
  A: -6 | B: -2 | C: 0 | D: -15

The whole of this part, from the start:
Abbreviations – A = M5 antag; B = M5 PAM; C = M5 ag; D = CHRM4 antagonist
1. CN/C(=C/[N+](=O)[O-])NCCSCc1csc(CN(C)C)n1
  A: 1 | B: -3 | C: 1 | D: 4

2. CC(C)OC(=O)C(C)(C)Oc1ccc(C(=O)c2ccc(Cl)cc2)cc1
  A: -1 | B: 3 | C: -1 | D: -7

3. CCS(=O)(=O)CCn1c([N+](=O)[O-])cnc1C
  A: 2 | B: -6 | C: 0 | D: -16

4. O=C(CCCN1CC=C(n2c(=O)[nH]c3ccccc32)CC1)c1ccc(F)cc1
  A: 2 | B: -12 | C: 0 | D: 12

5. CCC(=O)O[C@]1(C(=O)CCl)[C@@H](C)C[C@H]2[C@@H]3CCC4=CC(=O)C=C[C@]4(C)[C@@]3(F)[C@@H](O)C[C@@]21C
  A: 2 | B: 0 | C: 1 | D: 6

6. OCCN(CCO)c1nc(N2CCCCC2)c2nc(N(CCO)CCO)nc(N3CCCCC3)c2n1
  A: 3 | B: -2 | C: 5 | D: 3

7. CC(C)(Sc1cc(C(C)(C)C)c(O)c(C(C)(C)C)c1)Sc1cc(C(C)(C)C)c(O)c(C(C)(C)C)c1
  A: -6 | B: -2 | C: 0 | D: -15

8. COc1cc([C@@H]2c3cc4c(cc3[C@@H](O[C@@H]3O[C@@H]5CO[C@@H](C)O[C@H]5[C@H](O)[C@H]3O)[C@H]3COC(=O)[C@H]23)OCO4)cc(OC)c1O
  A: 0 | B: -1 | C: 1 | D: -2

9. O=c1n(CCCN2CCN(c3cccc(Cl)c3)CC2)nc2ccccn12
  A: 8 | B: -8 | C: 0 | D: -11

10. COC1=CC(=O)CC(C)C12Oc1c(Cl)c(OC)cc(OC)c1C2=O (stereo unspecified)
  A: -2 | B: 1 | C: 0 | D: -4

Next part, overlapping the part above by two compounds.
Abbreviations – A = M5 antag; B = M5 PAM; C = M5 ag; D = CHRM4 antagonist
9. O=c1n(CCCN2CCN(c3cccc(Cl)c3)CC2)nc2ccccn12
  A: 8 | B: -8 | C: 0 | D: -11

10. COC1=CC(=O)CC(C)C12Oc1c(Cl)c(OC)cc(OC)c1C2=O (stereo unspecified)
  A: -2 | B: 1 | C: 0 | D: -4

11. CN(C)c1nc(N(C)C)nc(N(C)C)n1
  A: -3 | B: 0 | C: 0 | D: -5

12. Nc1ccn(C2OC(CO)C(O)C2O)c(=O)n1 (stereo unspecified)
  A: 12 | B: -8 | C: 3 | D: -9

13. C[N+](C)(C)CCOP(=O)([O-])OC[C@H](O)CO
  A: -4 | B: -1 | C: 0 | D: -20

14. CNC(CC(C)C)C(=O)NC1C(=O)NC(CC(N)=O)C(=O)NC2C(=O)NC3C(=O)NC(C(=O)NC(C(=O)O)c4cc(O)cc(O)c4-c4cc3ccc4O)C(O)c3ccc(c(Cl)c3)Oc3cc2cc(c3OC2OC(CO)C(O)C(O)C2OC2C[C@](C)(N)C(O)C(C)O2)Oc2ccc(cc2Cl)C1O (stereo partly specified)
  A: 3 | B: 5 | C: 0 | D: 2

15. COc1ccc(Cl)cc1C(=O)NCCc1ccc(S(=O)(=O)NC(=O)NC2CCCCC2)cc1
  A: -3 | B: -6 | C: -1 | D: -17

16. CNC(CC(C)C)C(=O)NC1C(=O)NC(CC(N)=O)C(=O)NC2C(=O)NC3C(=O)NC(C(=O)NC(C(=O)O)c4cc(O)cc(O)c4-c4cc3ccc4O)C(O)c3ccc(c(Cl)c3)Oc3cc2cc(c3OC2OC(CO)C(O)C(O)C2OC2CC(C)(N)C(O)C(C)O2)Oc2ccc(cc2Cl)C1O (stereo unspecified)
  A: -3 | B: 1 | C: 1 | D: -7

17. NS(=O)(=O)c1cc(C2(O)NC(=O)c3ccccc32)ccc1Cl (stereo unspecified)
  A: -13 | B: 9 | C: 0 | D: -24

18. CS(=O)(=O)OCCCCOS(C)(=O)=O
  A: -5 | B: 4 | C: 2 | D: -4

Source: PubChem
